Screening data as filed in PubChem BioAssay.
Sa growth 42C = S. aureus growth inhibition; S. aureus RN4220 growth, OD600, 20 h, 42 °C; stronger effect = lower value; relative growth, % (test concentration not listed); 170,000 tested, 0.53% active; AID 720641;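 active means growth at 42 °C up to 50% and 20 or more points under that at 30 °C, or under 10% at both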;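 further: 300 nL library stock went into each well; scaled to the means of positive and negative controls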
HCMV NEC inh = inhibitors of HCMV UL50-UL53 nuclear egress complex interaction | AID 1918969 | 190,000 tested, 0.15% active | HTRF UL50-UL53 interaction, normalized percent inhibition | inhibition, % (no concentration beside the values);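 active means both replicates at 50% or more, plus weaker picks with an unusually low signal ratio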;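 further: stock transfer was 100 nL into about 20 µL; 0% = negative control wells and 100% = wells with untagged competitor protein; inactives centre near -12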
GIV Gai3 FP = blocks GIV peptide binding to rat Galpha-i3 | P08753 | Galpha-i3/FITC-GIV peptide fluorescence polarization, 90 min; stronger effect = lower value; scaled: aluminum fluoride 0%, vehicle 100% | percent of control (FP), % (no concentration beside the values) | 210,000 tested, 0.42% active | AID 1224905;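 active means replicate mean at 85% of control or lower, very high polarization wells dropped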;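 further: wells of about 15 µL received 100 nL stock; the first replicate is given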
Target sequence (P08753 whole entry, looked up): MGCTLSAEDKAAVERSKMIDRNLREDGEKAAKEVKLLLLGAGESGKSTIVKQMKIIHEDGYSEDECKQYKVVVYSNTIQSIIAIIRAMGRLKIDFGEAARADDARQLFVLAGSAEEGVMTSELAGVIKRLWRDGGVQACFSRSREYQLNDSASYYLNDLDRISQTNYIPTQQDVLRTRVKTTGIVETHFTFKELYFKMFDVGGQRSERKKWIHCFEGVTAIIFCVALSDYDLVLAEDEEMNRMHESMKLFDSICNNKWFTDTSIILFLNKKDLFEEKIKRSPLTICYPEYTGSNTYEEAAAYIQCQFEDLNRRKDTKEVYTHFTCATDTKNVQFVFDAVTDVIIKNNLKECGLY
Sa growth 42C second temp = further read-out of Sa growth 42C, marked with its call; relative growth, %; measured here: growth at 30 °C;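 optical density after 20 h as mean of two plates; 100% = untreated growth and lower means inhibition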
* hit, by the source's call; . = no result given; & = joins results of further samples. Compounds were not picked by outcome; about 0.79% have a hit in one of these screens.

#	SMILES	Sa growth 42C	Sa growth 42C second temp
1	c1csc(-c2nnc(CON=C3c4ccccc4-c4ccccc43)o2)c1	98	99
2	COc1ccc(CCNC(=O)Cn2ncc3c(=O)oc4ccccc4c32)c(OC)c1	103	94
3	N=C1C(c2ccc(Br)cc2)=C(O)C2CCc3ccccc3N12 (stereo not given)	84	70
4	CCOc1ccc(S(=O)(=O)N2CCC(N3CCN(Cc4ccc(F)cc4)C(=O)C3=O)CC2)cc1	82	86
5	CC(=O)Nc1ccccc1-c1nc2ccccc2n(C(C)C(=O)Nc2ccccc2)c1=O (stereo not given)	.	.
6	O=C(c1ccc2c(c1)OCO2)c1cn(Cc2ccc(Cl)cc2)c2ccc(F)cc2c1=O	84	77
7	O=c1cc(C(F)(F)F)nc(Cc2c(Cl)cccc2Cl)[nH]1	101	91
8	O=C(OCC(=O)N1CCCC1)c1ccc2c(c1)OCO2	99	93
9	CCC(=O)c1ccc(OC(=O)c2cn(-c3ccccc3)nc2-c2ccccc2)cc1	92	74
10	Cc1cc(C)cc(NC(=O)C2CCCN(c3cnccn3)C2)c1 (stereo not given)	96	89

#	HCMV NEC inh	GIV Gai3 FP
1	-34	.
2	-11	103
3	-8	.
4	.	104
5	-26	97
6	-22	97
7	-17	100
8	-29	.
9	.	97
10	-31	97

Structures from the list above that contain sulfur (two):
#	SMILES	Sa growth 42C	Sa growth 42C second temp
1	c1csc(-c2nnc(CON=C3c4ccccc4-c4ccccc43)o2)c1	98	99
4	CCOc1ccc(S(=O)(=O)N2CCC(N3CCN(Cc4ccc(F)cc4)C(=O)C3=O)CC2)cc1	82	86

#	HCMV NEC inh	GIV Gai3 FP
1	-34	.
4	.	104

Random excerpt: four records from the list
#	SMILES	Sa growth 42C	Sa growth 42C second temp
10	Cc1cc(C)cc(NC(=O)C2CCCN(c3cnccn3)C2)c1 (stereo not given)	96	89
2	COc1ccc(CCNC(=O)Cn2ncc3c(=O)oc4ccccc4c32)c(OC)c1	103	94
4	CCOc1ccc(S(=O)(=O)N2CCC(N3CCN(Cc4ccc(F)cc4)C(=O)C3=O)CC2)cc1	82	86
7	O=c1cc(C(F)(F)F)nc(Cc2c(Cl)cccc2Cl)[nH]1	101	91

#	HCMV NEC inh	GIV Gai3 FP
10	-31	97
2	-11	103
4	.	104
7	-17	100

Following part:
#	SMILES	Sa growth 42C	Sa growth 42C second temp
11	O=C(c1ccccc1)c1ccc(O)cc1O	101	58
12	CC1CC(NC(=O)/C=C/C(=O)O)CC(C)(C)C1 (stereo not given)	101	108
13	O=C(NC1CC1)c1nc(-c2ccccc2)no1	101	103
14	O=C(OCC1CCCO1)c1ccc2c(c1)N(Cc1ccccc1F)C(=O)c1ccccc1S2 (stereo not given)	.	.
15	COC(=O)c1ccc(COC(=O)c2ccc3[nH]c(C)c(C)c3c2)o1	96	83
16	O=C(CCS(=O)(=O)c1ccc2c(c1)SCC(=O)N2)NCc1cccs1	119	85
17	CCOC(=O)C(C#N)C(=O)c1c(-c2c(Cl)cccc2Cl)noc1C (stereo not given)	154	94
18	Cc1cc(S(=O)(=O)Nc2ccc(-c3ccc(N4CCOCC4)nn3)cc2)c(C)cc1Cl	.	.
19	CC(=O)N/N=C(\Cc1nc2ccccc2[nH]1)c1ccccc1	123	97
20	COc1ccc(Cl)cc1-c1nc(SCC(=O)NC2CCS(=O)(=O)C2)n[nH]1 (stereo not given)	93	93

#	HCMV NEC inh	GIV Gai3 FP
11	-58	.
12	5	106
13	-23	102
14	14	108
15	-25	.
16	.	114
17	-2	99
18	0	104
19	-39	.
20	-9	.

Next entries follow.
#	SMILES	Sa growth 42C	Sa growth 42C second temp
21	Cc1nn(-c2cc(N(C)C)ncn2)c(C)c1CCC(=O)Nc1ccc(Br)cc1	.	.
22	Cn1cc(-c2nc(-c3ccncc3)no2)c(=O)c2cc(F)c(N3CCOCC3)cc21	.	.
23	Cc1cccc(Cc2c(C)nc3nc(SCc4ccccc4Cl)nn3c2C)c1	114	87
24	Cn1/c(=N/N=C2c3cc(S(=O)(=O)NCCO)ccc3-c3ccc(S(=O)(=O)NCCO)cc32)sc2ccccc21	77	90
25	O=C(Nc1ccc2nccnc2c1)c1cccnc1Oc1ccc(Cl)cc1	87	81
26	CC1CCCCN1C(=O)c1ccc(F)cc1F (stereo not given)	140	87
27	CCNc1c(NC(=O)c2cc(OCC)c(OCC)c(OCC)c2)c(=O)oc2ccccc12	100	85
28	O=C(NCCN1CCOCC1)c1nc(-c2ccc(Cl)cc2)n2c1CCCCC2	94	105
29	O=C(Nc1ccccc1N1CCCCC1)C1CC(=O)N(Cc2ccccc2)C1 (stereo not given)	92	103
30	CC(CCc1ccccc1)NC(=O)Cn1ncc2c3ccccc3n(Cc3cccc(Cl)c3)c2c1=O (stereo not given)	110	87

#	HCMV NEC inh	GIV Gai3 FP
21	-22	102
22	-10	99
23	3	99
24	-22	.
25	-4	99
26	-20	.
27	-9	101
28	21	103
29	13	.
30	-20	206

3 compounds already listed, sorted by their value in Sa growth 42C second temp, low to high.
item | SMILES | Sa growth 42C second temp | GIV Gai3 FP
11 | O=C(c1ccccc1)c1ccc(O)cc1O | 58 | .
20 | COc1ccc(Cl)cc1-c1nc(SCC(=O)NC2CCS(=O)(=O)C2)n[nH]1 (stereo not given) | 93 | .
2 | COc1ccc(CCNC(=O)Cn2ncc3c(=O)oc4ccccc4c32)c(OC)c1 | 94 | 103

(listing goes on)
#	SMILES	Sa growth 42C	Sa growth 42C second temp
31	CCC(=O)N(c1nnc(SCC(=O)c2ccc[nH]2)s1)C1CC1	72	73
32	COc1ccc(N2C(=O)CSC23C(=O)N(Cc2cccc(F)c2)c2ccccc23)cc1Cl (stereo not given)	91	87
33	Cn1cccc1/C=N/NC(=O)c1sc2cc(Cl)ccc2c1Cl	104	113
34	CS(=O)(=O)Nc1nc2ccc(NC(=O)c3cccnc3)cc2s1	.	.
35	O=C(CSc1cn(CC(=O)N2CCOCC2)c2ccccc12)Nc1ccccc1F	125	88
36	O=S(=O)(c1ccc(-n2cnnn2)cc1)N1CC=C(c2ccc(F)cc2)CC1	77	86
37	O=C(c1ccc(OC(F)(F)F)cc1)c1ncc[nH]1	108	99
38	CCOc1ccc(N(Cc2ccccc2)C(=O)c2nc(S(C)(=O)=O)ncc2Cl)cc1	33	4
39	CCOc1cc(C(=O)N2CCc3c([nH]c4ccccc34)C2c2ccccc2)cc(OCC)c1OCC (stereo not given)	94	91
40	COc1ccc(-c2n[nH]c3c2C(c2ccc(Cl)cc2Cl)NC3=O)cc1 (stereo not given)	91	76

#	HCMV NEC inh	GIV Gai3 FP
31	-39	.
32	.	101
33	-14	97
34	-22	102
35	.	105
36	-14	97
37	-2	106
38	-9	103
39	.	105
40	-6	99

Down the list, from the results shown.
Sa growth 42C second temp for entries 19 to 27: 97, 93, ., ., 87, 90, 81, 87, 85
GIV Gai3 FP for entries 19 to 27: ., ., 102, 99, 99, ., 99, ., 101

Next part.
#	SMILES	Sa growth 42C	Sa growth 42C second temp
41	Nc1nc(=O)n(CC(O)C(=O)O)cc1Br (stereo not given)	91	85
42	O=C1C2=C(Nc3ccccc3SC2c2ccccc2Br)c2ccccc21 (stereo not given)	.	.
43	CC(=O)Nc1ccc(S(=O)(=O)NCc2cn3c(C)csc3n2)cc1	.	.
44	COc1ccc2sc(N(Cc3cccnc3)C(=O)COc3ccccc3)nc2c1	103	87
45	O=C(Nc1ccc2[nH]c(=O)oc2c1)c1cccc(F)c1	.	.
46	CCc1cc(C(=O)Nc2c(C)nn(Cc3ccccc3Cl)c2C)no1	97	90
47	Cc1cccc2c1nc1s/c(=C/c3cn[nH]c3-c3ccccc3)c(=O)n12	112	97
48	Cc1cccc(C)c1OCc1nc2c3c(-c4ccccc4)c(-c4ccccc4)oc3ncn2n1	100	85
49	COC(=O)CN(c1nc(C)cc(OC)n1)S(=O)(=O)c1ccc(C)cc1	.	.
50	Cc1ccc(NC(=O)NCc2cc(=O)n3nc(-c4ccccc4)sc3n2)cc1	.	.

#	HCMV NEC inh	GIV Gai3 FP
41	-23	104
42	-42	99
43	-16	105
44	.	102
45	13	103
46	-28	103
47	.	105
48	-45	108
49	10	109
50	-20	103

Carrying on.
#	SMILES	Sa growth 42C	Sa growth 42C second temp
51	Cc1nc2ncnn2c(C)c1CCC(=O)N1CCN(c2ccccn2)CC1	.	.
52	CNC(=O)c1ccccc1S(=O)c1cccc2cccc(C(=O)OC)c12 (stereo not given)	93	93
53	CCOc1ccc(-c2nnc(SCC(=O)NCc3ccc(C)cc3)nc2-c2ccc(OCC)cc2)cc1	119	101
54	Cc1ccccc1CNCC1CCC(C(=O)O)CC1 (stereo not given)	100	97
55	CSc1ncccc1C(=O)Nc1ccc(F)cc1	100	86
56	O=C(CSc1ncn[nH]1)NCCCc1ccccc1	102	101
57	COc1cccc(CNCCO)c1OCc1ccccc1F	101	106
58	COc1ccc(CCNC(=O)CSc2ccccc2Cl)cc1	71	92
59	CN(C)c1nc(N(C)C)nc(N2CC(=O)N(c3ccc(Cl)c(Cl)c3)C2=N)n1	.	.
60	CC(C)(C)c1ccc(CNCc2ccco2)cc1	87	92

#	HCMV NEC inh	GIV Gai3 FP
51	-19	99
52	-51	105
53	.	103
54	1	108
55	.	110
56	-5	.
57	15	104
58	4	.
59	-3	105
60	-16	.

Continued:
#	SMILES	Sa growth 42C	Sa growth 42C second temp
61	CC(C)CNC(=O)Cn1c(=O)cnc2ccccc21	112	95
62	C[C@]12CCC3c4ccc(OS(=O)(=O)O)cc4CCC3C1CCC2=O (stereo not given in full)	87	86
63	O=C(c1ccccc1)c1ccc(CBr)cc1	66	88
64	O=C(NCCCN1CCCC1=O)c1sc2c(cnc3c(F)cccc32)c1-c1ccccc1	.	.
65	COc1ccc(Cn2c(C)c(C3=CCN(S(=O)(=O)c4cccc5cccnc45)CC3)c3ccccc32)cc1	.	.
66	N#C/C(=C(/O)COc1ccccc1)c1nc2ccccc2s1	81	34
67	CNC(=O)NC(=O)C(Sc1nnnn1-c1cc(C)ccc1C)c1ccccc1 (stereo not given)	83	88
68	O=C(CN1CCN(Cc2ccccc2)C1=O)NCCCN1CCOCC1	92	90
69	Cc1ccc(-c2nnc(-c3nc(N4CCN(c5ccccn5)CC4)c4ccccc4n3)o2)cc1	.	.
70	O=C1NC(C(F)(F)F)(C(F)(F)F)N=C2SC=C(C3CC3)N12	90	85

#	HCMV NEC inh	GIV Gai3 FP
61	-14	.
62	-45&-70	.
63	-5	.
64	-38	105
65	-19	111
66	-6	.
67	-24	.
68	.	102
69	-24	97
70	-14	.

Next part:
#	SMILES	Sa growth 42C	Sa growth 42C second temp
71	CCOC(=O)c1cn[nH]c1S(=O)(=O)N1CCN(C2CCCCC2)CC1	.	.
72	O=C(N/C=C/n1cnc2ccccc21)c1ccc(Cl)cc1	77	93
73	O=C(Nc1ccccc1C(=O)NC1CC1)c1ccco1	92	98
74	CN(Cc1cccs1)C(=O)C1CCN(S(=O)(=O)c2ccccc2)CC1	79	86
75	Cc1ccc(C(=O)NC2(C(F)(F)F)N=C(c3ccccc3)N(Cc3ccccc3)C2=O)cc1 (stereo not given)	103	88
76	CCn1c(NCc2ccc(Br)cc2)nc2ccccc21	102	71
77	COc1ccc(C2CC(=O)C3=C(C2)NC(C)=C(C(=O)OC2CCCC2)C3c2cccc([N+](=O)[O-])c2)cc1 (stereo not given)	.	.
78	COc1ccc(Cn2c(SCc3ccc(C(=O)NCCN4CCCC4)cc3)nc3cccnc32)cc1	.	.
79	Cc1cccc(C(=O)Nc2sc3c(c2C(=O)NCc2ccco2)CCCC3)c1	103	105
80	NS(=O)(=O)c1cc(C2(O)NC(=O)c3ccccc32)ccc1Cl (stereo not given)	88	81

#	HCMV NEC inh	GIV Gai3 FP
71	-10	96
72	-7	.
73	-3	105
74	-30	.
75	-6	103
76	-1	101
77	-18	102
78	-43	109
79	-3	107
80	-16&-3&-38	.

Additional compounds follow.
#	SMILES	Sa growth 42C	Sa growth 42C second temp
81	CCCOc1ccccc1C1NC(=S)NC(C)=C1C(=O)OC1CCCC(C)C1 (stereo not given)	130	72
82	Cc1noc(N)c1C(=O)OCc1ccc(C#N)cc1	83	89
83	C=CCc1c(C)c(C#N)c2nc3ccccc3n2c1NCCOCCO	49	20
84	CCc1nn(CC(=O)NCCCOC)c(=O)c2cc3occc3n12	104	91

#	HCMV NEC inh	GIV Gai3 FP
81	-2	.
82	-13	.
83	-31	103
84	1	103
